Vaccinia inh: Vaccinia orthopox stage-specific inhibition | Vaccinia-infected cells, mCherry/Venus stage reporter fluorescence; active compounds read low; some inactives read as strong as hits | activity change (mCherry), % (test concentration not listed) | 89,000 tested, 0.01% active;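 active = mCherry past -33% and 40 or more points under the early reporter, replicates agreeing; inconclusive = past -33% without that gap or agreement; tested in A549 cells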;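 also: scaled between vehicle wells and reference inhibitor wells; 23 nL library stock went into each well; one replicate is shown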
Vaccinia inh Venus: recorded beside Vaccinia inh, whose call it bears; activity change (Venus), %; measured here: Venus reporter, other viral stage;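 negative = less Venus signal; first of two replicates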
* = called active by the depositor; & = joins results of further samples.

What do the screens show for `C[C@H](CO)N1C[C@H](C)[C@H](CN(C)Cc2ccc(C(F)(F)F)cc2)Oc2c(NC(=O)c3cnccn3)cccc2C1=O`?
Vaccinia inh: 6; Vaccinia inh Venus: -3

What do the screens show for `C[C@@H]1CCCCO[C@H](CN(C)C(=O)Nc2cccc3ccccc23)[C@@H](C)CN([C@@H](C)CO)C(=O)c2cc(NS(=O)(=O)c3ccccc3)ccc2O1`?
Vaccinia inh: -11; Vaccinia inh Venus: -9

How did CO[C@@H]1CN(C)C(=O)c2ccc(NC(=O)Nc3ccccc3)cc2OC[C@H](C)N(C(C)=O)C[C@H]1C do in these assays?
Vaccinia inh: -2; Vaccinia inh Venus: -3

How did C[C@@H]1CCCCO[C@@H](CN(C)C(=O)CCCN(C)C)[C@@H](C)CN([C@H](C)CO)C(=O)c2cc(NC(=O)CCC(F)(F)F)ccc2O1 do in these assays?
Vaccinia inh: 15; Vaccinia inh Venus: 6

Results for CO[C@@H]1CN(C)C(=O)c2ccc(NC(C)=O)cc2OC[C@H](C)N(C(=O)C2CCC2)C[C@@H]1C ?
Vaccinia inh: 16; Vaccinia inh Venus: 13

How did CO[C@H]1CN(C)C(=O)c2ccc(NC(C)=O)cc2OC[C@H](C)N(Cc2cc(F)ccc2F)C[C@H]1C do in these assays?
Vaccinia inh: -6; Vaccinia inh Venus: -13

How did COc1ccc(NC(=O)N2C[C@H](O)COC[C@H]3O[C@@H](CC(=O)NCc4ccccc4OC)CC[C@@H]32)cc1 do in these assays?
Vaccinia inh: 19; Vaccinia inh Venus: 7

Results for C[C@H](CO)N1C[C@H](C)[C@H](CN(C)Cc2ccc(C(=O)O)cc2)Oc2ccc(NC(=O)CCC(F)(F)F)cc2CC1=O ?
Vaccinia inh: 20; Vaccinia inh Venus: 10

What do the screens show for `CCCC#Cc1ccc([C@H]2[C@H]3CN(C(=O)NC4CCCC4)CCCCN3[C@H]2CO)cc1`?
Vaccinia inh: inconclusive

What do the screens show for `C[C@@H]1CN([C@@H](C)CO)C(=O)CCCn2cc(nn2)CO[C@H]1CN(C)C(=O)OCc1ccccc1`?
Vaccinia inh: 1&-1; Vaccinia inh Venus: 25&-1

Results for C[C@@H]1CN([C@@H](C)CO)C(=O)c2cc(NC(=O)Nc3ccc(C(F)(F)F)cc3)ccc2O[C@@H](C)CCCCO[C@@H]1CN(C)CC1CCCCC1 ?
Vaccinia inh: 10; Vaccinia inh Venus: -13

How did CO[C@@H]1CC[C@H]2CCOc3c(C#N)cccc3C(=O)N(C)C[C@@H](C)C(=O)N(C)C[C@@H]1O2 do in these assays?
Vaccinia inh: 9; Vaccinia inh Venus: -3

How did C[C@H](CO)N1C[C@H](C)[C@@H](CN(C)Cc2ccc(-c3ccccc3)cc2)Oc2c(NS(=O)(=O)c3cccs3)cccc2C1=O do in these assays?
Vaccinia inh: -17; Vaccinia inh Venus: -21

What do the screens show for `O=C1CN(Cc2ccc(F)cc2)C[C@@H]2[C@H](c3ccc(-c4ccccc4)cc3)[C@H](CO)N12`?
Vaccinia inh: 9; Vaccinia inh Venus: -3

How did Cc1cc(C(=O)Nc2cccc3c2O[C@@H](CN(C)S(=O)(=O)c2cccs2)[C@@H](C)CN([C@@H](C)CO)C3=O)n(C)n1 do in these assays?
Vaccinia inh: 2; Vaccinia inh Venus: 1

Results for Cc1ccc(S(=O)(=O)Nc2ccc3c(c2)C(=O)N([C@H](C)CO)C[C@H](C)[C@H](CN(C)C(=O)NC2CCCCC2)OCCCC[C@H](C)O3)cc1 ?
Vaccinia inh: inconclusive

How did COc1ccc2c3c(n(C)c2c1)[C@H](CO)N(C(=O)C1CCOCC1)CC31CCN(Cc2cccc(F)c2)CC1 do in these assays?
Vaccinia inh: -17; Vaccinia inh Venus: -19

How did Cc1noc(C)c1NC(=O)N(C)C[C@H]1OCc2ccccc2-c2c(n(C)c3ccccc23)C(=O)N([C@@H](C)CO)C[C@@H]1C do in these assays?
Vaccinia inh: -6; Vaccinia inh Venus: -1

What do the screens show for `O=C(C[C@H]1C[C@@H]2c3cc(NC(=O)c4ccc5c(c4)OCO5)ccc3O[C@@H]2[C@@H](CO)O1)NCCc1ccccc1`?
Vaccinia inh: -12; Vaccinia inh Venus: -9

Results for Cc1noc(C)c1S(=O)(=O)Nc1cccc2c1O[C@@H](CN(C)CC1CC1)[C@@H](C)CN([C@H](C)CO)C2=O ?
Vaccinia inh: 22; Vaccinia inh Venus: 17

Structures from the list above containing a halogen:
What do the screens show for `C[C@H](CO)N1C[C@H](C)[C@H](CN(C)Cc2ccc(C(F)(F)F)cc2)Oc2c(NC(=O)c3cnccn3)cccc2C1=O`?
Vaccinia inh: 6; Vaccinia inh Venus: -3

How did C[C@@H]1CCCCO[C@@H](CN(C)C(=O)CCCN(C)C)[C@@H](C)CN([C@H](C)CO)C(=O)c2cc(NC(=O)CCC(F)(F)F)ccc2O1 do in these assays?
Vaccinia inh: 15; Vaccinia inh Venus: 6

How did CO[C@H]1CN(C)C(=O)c2ccc(NC(C)=O)cc2OC[C@H](C)N(Cc2cc(F)ccc2F)C[C@H]1C do in these assays?
Vaccinia inh: -6; Vaccinia inh Venus: -13

Results for C[C@H](CO)N1C[C@H](C)[C@H](CN(C)Cc2ccc(C(=O)O)cc2)Oc2ccc(NC(=O)CCC(F)(F)F)cc2CC1=O ?
Vaccinia inh: 20; Vaccinia inh Venus: 10

Results for C[C@@H]1CN([C@@H](C)CO)C(=O)c2cc(NC(=O)Nc3ccc(C(F)(F)F)cc3)ccc2O[C@@H](C)CCCCO[C@@H]1CN(C)CC1CCCCC1 ?
Vaccinia inh: 10; Vaccinia inh Venus: -13

What do the screens show for `O=C1CN(Cc2ccc(F)cc2)C[C@@H]2[C@H](c3ccc(-c4ccccc4)cc3)[C@H](CO)N12`?
Vaccinia inh: 9; Vaccinia inh Venus: -3

How did COc1ccc2c3c(n(C)c2c1)[C@H](CO)N(C(=O)C1CCOCC1)CC31CCN(Cc2cccc(F)c2)CC1 do in these assays?
Vaccinia inh: -17; Vaccinia inh Venus: -19

(list continues)
What do the screens show for `COc1ccc(S(=O)(=O)Nc2ccc3c(c2)CC(=O)N([C@H](C)CO)C[C@H](C)[C@H](CN(C)CC2CCCCC2)O3)cc1`?
Vaccinia inh: inconclusive

Results for C[C@@H]1CN([C@H](C)CO)S(=O)(=O)c2ccc(-c3cncnc3)cc2O[C@H]1CN(C)Cc1ccncc1 ?
Vaccinia inh: -3; Vaccinia inh Venus: 7

How did C[C@@H]1CCCCO[C@@H](CN(C)CC2CCCCC2)[C@@H](C)CN([C@H](C)CO)C(=O)c2cc(NC(=O)Nc3ccc(C(F)(F)F)cc3)ccc2O1 do in these assays?
Vaccinia inh: 21; Vaccinia inh Venus: 6

How did COc1ccc(NC(=O)Nc2ccc3c(c2)C(=O)N([C@H](C)CO)C[C@H](C)[C@H](CN(C)CC2CC2)OCCCC[C@H](C)O3)cc1 do in these assays?
Vaccinia inh: -15; Vaccinia inh Venus: -13

Results for C/C=C/c1ccc2c(c1)O[C@@H](CN(C)C)[C@@H](C)CN([C@@H](C)CO)S2(=O)=O ?
Vaccinia inh: 18; Vaccinia inh Venus: -2

Results for COc1ccc(CNC(=O)C[C@@H]2C[C@@H]3c4cc(NC(=O)CN(C)C)ccc4O[C@@H]3[C@H](CO)O2)cc1 ?
Vaccinia inh: 8; Vaccinia inh Venus: 5

What do the screens show for `CN1C(=O)c2cc(NC(=O)c3cc(F)cc(F)c3)ccc2OC[C@@H]2O[C@H](CC(=O)O)CC[C@@H]21`?
Vaccinia inh: -1; Vaccinia inh Venus: 4

How did COCC(=O)N1C[C@@H]2[C@H](c3ccccc31)[C@H](CO)N2C(=O)Nc1ccccc1F do in these assays?
Vaccinia inh: 3; Vaccinia inh Venus: 1

Results for COc1ccc(-c2cccc(-c3nc(C(=O)N(C)C)cc4c3[C@@H](CCO)N([S@](=O)C(C)(C)C)C4)c2)cc1 ?
Vaccinia inh: 5; Vaccinia inh Venus: 20

Results for CC=Cc1ccc2n(c1=O)C[C@@H]1[C@@H](CO)[C@H](C(=O)N3CCOCC3)[C@H]2N1CC1CC1 (mixture of isomers) ?
Vaccinia inh: 19; Vaccinia inh Venus: 14

What do the screens show for `CO[C@H]1CN(C)C(=O)c2ccc(NC(=O)c3cc(C)on3)cc2OC[C@@H](C)N(CC2CC2)C[C@@H]1C`?
Vaccinia inh: 1; Vaccinia inh Venus: -2

What do the screens show for `CN(C)C(=O)c1cccc(-c2ccccc2[C@H]2[C@H](C#N)N(C(=O)C3CCCCC3)[C@H]2CO)c1`?
Vaccinia inh: 3; Vaccinia inh Venus: -6

Results for CC(C)NC(=O)N[C@@H]1CC[C@H](CC(=O)N2CCCCC2)O[C@H]1CO ?
Vaccinia inh: 3; Vaccinia inh Venus: 0

What do the screens show for `COCC(=O)N1C[C@@H](C)[C@H](OC)CN(C)C(=O)c2cc(NC(=O)Nc3ccccc3)ccc2OC[C@H]1C`?
Vaccinia inh: -2; Vaccinia inh Venus: 0

How did CCCNC(=O)N(C)C[C@H]1Oc2cc(C#CCN(C)C)ccc2S(=O)(=O)N([C@H](C)CO)C[C@H]1C do in these assays?
Vaccinia inh: 14; Vaccinia inh Venus: -5

What do the screens show for `O=C(N[C@H]1CC[C@@H](CCNC(=O)C2CCCCC2)O[C@H]1CO)c1ccncc1`?
Vaccinia inh: 6; Vaccinia inh Venus: 5

What do the screens show for `CO[C@H]1CN(C)C(=O)c2cc(NC(=O)NC3CCCCC3)ccc2OC[C@H](C)N(CC2CCOCC2)C[C@H]1C`?
Vaccinia inh: 1; Vaccinia inh Venus: -1

Results for CCCC#Cc1cnc2c(c1)C(=O)N([C@@H](C)CO)C[C@@H](C)[C@H](CN(C)S(=O)(=O)c1cn(C)cn1)O2 ?
Vaccinia inh: -3; Vaccinia inh Venus: 9

How did O=C(c1ccc2c(c1)OCO2)N1C[C@H]2[C@@H](c3ccccc31)[C@H](CO)N2Cc1ccccc1Cl do in these assays?
Vaccinia inh: -9; Vaccinia inh Venus: -7

What do the screens show for `COc1ccc(NC(=O)Nc2ccc3c(c2)C(=O)N([C@H](C)CO)C[C@@H](C)[C@@H](CN(C)Cc2ccc(C(=O)Nc4ccccc4N)cc2)O3)cc1`?
Vaccinia inh: -3; Vaccinia inh Venus: 9

How did COc1ccc(S(=O)(=O)Nc2ccc3c(c2)C(=O)N([C@@H](C)CO)C[C@H](C)[C@@H](CN(C)S(=O)(=O)c2c(C)noc2C)OCCCC[C@@H](C)O3)cc1 do in these assays?
Vaccinia inh: inconclusive

What do the screens show for `C[C@H]1CN([C@@H](C)CO)C(=O)c2cc(NC(=O)Nc3ccc(C(F)(F)F)cc3)ccc2O[C@@H]1CN(C)C(=O)Nc1ccc2c(c1)OCO2`?
Vaccinia inh: 17; Vaccinia inh Venus: 11

How did COc1ccc2c3c(n(C)c2c1)[C@H](CO)N(C(=O)c1ccc(F)cc1)CC31CCN(C(=O)Nc2ccc(F)cc2)CC1 do in these assays?
Vaccinia inh: -23; Vaccinia inh Venus: -17

How did Cc1noc(C)c1NC(=O)N[C@H]1CC[C@@H](CC(=O)NCc2ccc(Cl)c(Cl)c2)O[C@@H]1CO do in these assays?
Vaccinia inh: 8; Vaccinia inh Venus: 9

How did CN(C)C(=O)c1ccc(-c2ccc(C3[C@@H]4CN(Cc5cccnc5)C[C@H]3N4)cc2)cc1 (stereo not given in full) do in these assays?
Vaccinia inh: -10; Vaccinia inh Venus: -15

Results for COc1ccc(C(=O)N2C[C@H]3[C@@H](c4ccccc42)[C@@H](CO)N3C(=O)Cc2ccccn2)cc1 ?
Vaccinia inh: 2; Vaccinia inh Venus: 3

How did CO[C@H]1CN(C)C(=O)c2cc(NC(=O)Nc3ccccc3)ccc2OC[C@H](C)N(CC2CC2)C[C@@H]1C do in these assays?
Vaccinia inh: -16; Vaccinia inh Venus: -13

How did COc1ccc(CN(C)C[C@H]2OCCCC[C@H](C)Oc3ccc(NS(=O)(=O)c4cccs4)cc3C(=O)N([C@@H](C)CO)C[C@@H]2C)cc1 do in these assays?
Vaccinia inh: -29; Vaccinia inh Venus: -27

What do the screens show for `C[C@@H]1CCCCO[C@H](CN(C)C(=O)Nc2ccc(F)cc2)[C@H](C)CN([C@H](C)CO)C(=O)c2cc(NC(=O)CCC(F)(F)F)ccc2O1`?
Vaccinia inh: -4; Vaccinia inh Venus: -5

What do the screens show for `CN(C)C(=O)c1cccc(-c2ccc([C@@H]3[C@H]4CN(CCC(F)(F)F)CCCCN4[C@H]3CO)cc2)c1`?
Vaccinia inh: 15; Vaccinia inh Venus: 9

Results for CC(C)CC#Cc1ccc2c(c1)O[C@H](CN(C)C)[C@@H](C)CN([C@H](C)CO)S2(=O)=O ?
Vaccinia inh: inconclusive

What do the screens show for `COc1ccc(-c2ccc3n(c2=O)C[C@H]2[C@H](CO)[C@@H](C(=O)N(C)C)[C@@H]3N2Cc2cccnc2)cc1`?
Vaccinia inh: 4; Vaccinia inh Venus: 7

What do the screens show for `C[C@H]1CN([C@@H](C)CO)C(=O)c2ccccc2-c2ccccc2CO[C@H]1CN(C)C(=O)Nc1ccccc1C(F)(F)F`?
Vaccinia inh: 14; Vaccinia inh Venus: 6

How did C[C@@H]1CN([C@@H](C)CO)C(=O)c2cc(NC(=O)Nc3ccc(F)cc3)ccc2O[C@H]1CN(C)S(=O)(=O)c1ccccc1 do in these assays?
Vaccinia inh: 3; Vaccinia inh Venus: 4

What do the screens show for `Cc1noc(C)c1NC(=O)N(C)C[C@H]1Oc2c(cccc2N(C)C)C(=O)N([C@@H](C)CO)C[C@H]1C`?
Vaccinia inh: -3; Vaccinia inh Venus: 1

What do the screens show for `C[C@@H]1CN([C@@H](C)CO)C(=O)c2cc(NC(=O)C3CCCCC3)ccc2O[C@@H](C)CCCCO[C@@H]1CN(C)C(=O)CCC(F)(F)F`?
Vaccinia inh: -6; Vaccinia inh Venus: 2

Results for CC(C)NC(=O)N[C@H]1CC[C@@H](CC(=O)NCc2ccc(Oc3ccccc3)cc2)O[C@@H]1CO ?
Vaccinia inh: -9; Vaccinia inh Venus: -12

These rows are one share of the data; count on the stated rates, not on these rows.
